Assay outcomes (PubChem)
HSV replic up – HSV replication enhancement | HSV replication augmentation in cells, fold increase | maximum fold increase | 0.005% of 220,000 active | AID 1956;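 active = peak rise of 1.5-fold or more in the series; inconclusive = self-fluorescent or not available for retest; tested in PC3 cells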;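 also: first round at 10 µM; read as green reporter fluorescence; hits show the peak of a series up to 25 µM; 1 = signal of infected wells without compound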
PKD1 kinase inh – inhibitors of human PKD1 kinase. Q15139. PKD1 kinase fluorescence polarization assay. inhibition, %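 (about 10 µM by stock and volumes)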. 0.056% of 200,000 active;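 active = inhibition of 50% or more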;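 also: controls were vehicle for no effect and a reference inhibitor for full effect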
GALR2 ag – activates the human galanin receptor 2; O43603; GALR2-expressing cells, agonist activation read-out; activation, %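 (tested at 5 µM)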; 0.48% of 140,000 active; AID 803;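 active = above mean plus 3 SD of all compounds, about 5% in these data, not always enough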;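 also: 0% = vehicle buffer wells and 100% = reference agonist at full effect; tested in CHO reporter cells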
Target sequence (O43603 whole entry, looked up): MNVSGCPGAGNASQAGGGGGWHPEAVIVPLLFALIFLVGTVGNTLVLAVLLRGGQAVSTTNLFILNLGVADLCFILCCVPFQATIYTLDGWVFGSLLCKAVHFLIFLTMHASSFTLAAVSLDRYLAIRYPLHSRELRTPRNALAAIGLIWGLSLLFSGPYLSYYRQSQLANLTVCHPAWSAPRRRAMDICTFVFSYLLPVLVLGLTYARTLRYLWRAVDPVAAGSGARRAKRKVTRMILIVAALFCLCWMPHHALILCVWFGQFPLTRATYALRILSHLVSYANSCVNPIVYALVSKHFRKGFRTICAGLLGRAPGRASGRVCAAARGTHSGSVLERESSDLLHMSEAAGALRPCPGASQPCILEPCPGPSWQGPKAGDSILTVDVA
RGS16-Gao – regulators of human RGS16-Galphao interaction. O15492+P09471. bead-based flow cytometry RGS16-Galphao binding, fluorescence; actives lie on both sides. binding response (% of control), % at 10 µM. 0.38% of 220,000 active. AID 1441;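 active = below 25% or above 175%, edge rows of some plates excepted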;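 also: Galphao activated by GDP with aluminum fluoride before binding; 100% = wells without compound and 0% = beads without RGS; some results beyond the cut were filed as inactive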
Target sequence (O15492 whole entry, looked up): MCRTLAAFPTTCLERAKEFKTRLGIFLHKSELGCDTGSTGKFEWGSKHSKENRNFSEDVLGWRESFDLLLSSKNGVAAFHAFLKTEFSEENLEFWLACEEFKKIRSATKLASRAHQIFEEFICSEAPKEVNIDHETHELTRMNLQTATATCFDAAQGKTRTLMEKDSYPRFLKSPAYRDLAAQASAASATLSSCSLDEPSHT
Target sequence (P09471 whole entry, looked up): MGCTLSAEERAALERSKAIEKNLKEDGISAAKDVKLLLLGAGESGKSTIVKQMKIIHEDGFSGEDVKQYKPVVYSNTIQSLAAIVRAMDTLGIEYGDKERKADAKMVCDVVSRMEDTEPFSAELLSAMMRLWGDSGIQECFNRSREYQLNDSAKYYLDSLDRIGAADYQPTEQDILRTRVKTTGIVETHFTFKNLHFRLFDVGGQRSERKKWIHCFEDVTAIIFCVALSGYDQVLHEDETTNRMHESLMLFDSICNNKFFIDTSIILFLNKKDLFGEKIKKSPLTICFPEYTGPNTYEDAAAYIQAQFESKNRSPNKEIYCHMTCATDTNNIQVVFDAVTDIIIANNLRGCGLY
Insulin prom inh – TRM-6 insulin promoter activity inhibition; TRM-6 cells (human fetal islet line), insulin promoter-eGFP reporter, imaging; reporter expression induced with tamoxifen; 0.9% of 130,000 active; inhibition, % at 2 µM;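 active = inhibition above the mean plus 3 SD, with well images judged a real hit on visual review, cut at about 60% in these data, passing the limit was not always enough; inconclusive = inhibition over the cutoff but images rejected on review; inactive = inhibition not above the cutoff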
Insulin prom inh cell count – further read-out of Insulin prom inh, marked with its call; normalized cell count, %; measured here: cell count, toxicity; reference of the scale not given here;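 cells exposed to compound for 48 h; stained nuclei by imaging scaled within each plate; lower means fewer cells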
HSV replic up primary fold – also measured in HSV replic up; calls as there; fold increase; compound at 10 µM; measured here: primary screen fold increase 10 uM; tested in PC3 cells;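 GFP signal in the first replicate; 1 = infected wells without compound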
* hit, by the source's call; i = inactive; u = inconclusive; x = no result given.

SMILES	HSV replic up	HSV replic up primary fold	PKD1 kinase inh	GALR2 ag	RGS16-Gao	Insulin prom inh	Insulin prom inh cell count
Cc1ccc2c(c1)COc1c3ccc(C(=O)NCCO)cc3nn1-2	i	0.87	x	x	104	x	x
O=C(c1ccco1)N1CCN(C(=O)C2CC(c3ccc(F)cc3)=NO2)CC1 (configuration not stated)	i	0.82	-4	-1.1	102	10	77
O=C(Cn1c(NCCO)nc2ccccc21)N1CCN(Cc2ccccc2)CC1	i	1.1	5	x	102	x	x
Cc1cccc(C(=O)Nc2nnc(-c3ccco3)o2)c1	i	0.93	-10	0.7	106	x	x
Cc1cccc(C)c1NC(=O)COC(=O)c1cccnc1	i	0.99	-4	x	109	x	x
Cn1c(-c2ccccc2)n[nH]c1=S	i	1	x	x	100	x	x
O=C(N/N=C/c1ccc([N+](=O)[O-])s1)c1ccncc1	i	0.86	-1	-0.8	101	x	x
O=S(=O)(Nc1ncnc2sc3c(c12)CCC3)c1ccc2ccccc2c1	i	0.88	-1	-1.1	102	-3	121
COc1ccc(-c2cc(C(=O)N3CCCCC3)no2)cc1OC	i	1	-1	-0.5	103	x	x
CC(C)Oc1ccc(CC2CC(=O)NC2=O)cc1 (configuration not stated)	i	1	-10	-3.3	125	9	107
CCCCCSc1nc2c(c(=O)[nH]c(=O)n2C)n1C	i	0.92	-10	-2.4	73	x	x
CCOC(=O)Cc1csc(NC(=O)c2ccc(S(=O)(=O)N(CCOC)CCOC)cc2)n1	i	1	0	x	104	-62	61
O=C(Nc1ccc2c(c1)OCO2)N1CCN(c2ccc(F)cc2)CC1	i	0.91	-7	x	102	x	x
Cc1ccc(C(=O)Cn2nnc3ccccc32)cc1[N+](=O)[O-]	i	1.2	x	x	96	x	x
COc1cccc(CNCc2cccnc2)c1OCc1ccccc1	i	0.95	-4	x	103	x	x
CC(C)NC(=O)COc1ncnc2sccc12	i	0.94	-3	-1.1	113	-14	75
CC(C(=O)Nc1nncs1)N1C(=O)C2C3C=CC(C3)C2C1=O (configuration not stated)	i	0.95	3	x	113	x	x
O=C(Nc1cccnc1)c1ccc(-c2ccc(Cl)cc2)o1	i	0.94	-7	x	100	6	85
COc1ccc(Cl)cc1C(=O)CSc1nnnn1C1CCCC1	i	1.1	1	0.5	103	7	132
N#Cc1c(NC(=O)c2ccccc2)sc2c1CCCCC2	i	0.96	-5	-0.3	86	-253	63
CCOc1ccc(NC(=O)CSc2nc3cccnc3n2CC)cc1	i	0.92	-4	-0.1	102	0	59
CC/C(C)=N\N=C\c1c(O)n(CC)c2cc(C3=NNC(=O)CC3)ccc12	i	0.93	-4	-1.0	102	17	34
COCCn1c(-c2ccc(OC)cc2)cnc1SCC(=O)Nc1ccc(OC)cc1OC	i	1.1	4	-0.6	100	0	95
CCN(CC)S(=O)(=O)c1ccc(N=N/C(C(C)=O)=C(/C)O)cc1	i	0.86	-4	-1.5	100	-13	103
O=C1C=C(O)C(n2cncn2)C(c2ccc3c(c2)OCO3)C1 (configuration not stated)	i	0.91	-2	x	100	x	x
COC(=O)[C@H](CCSC)NC(=O)N1CCC(C)CC1	i	0.76	2	-2.3	96	43	131
CC1=CN2C(=NC(=O)CC2(C)C(=O)N(CC(=O)NC2CCCC2)c2cc(C)cc(C)c2)C=C1 (configuration not stated)	i	0.92	-5	x	114	29	134
O=C(Cn1[nH]c(=O)c2ccccc2c1=O)NCc1cccnc1	i	0.91	4	-4.4	122	x	x
CC1=C(C(=O)OC2CCCCCCC2)C(c2cccc(O)c2)NC(=O)N1 (configuration not stated)	i	0.98	0	-0.9	98	x	x
COC(=O)/C=C1\S/C(=N/N=C/c2ccco2)NC1=O	i	0.94	3	x	96	x	x
CC(C)N=C(Nc1ccc(Cl)cc1)c1cccnc1	i	0.96	7	-3.5	105	13	105
CC(=O)N(Cc1c(C)nn(-c2ccccc2)c1Cl)c1ccc(Cl)cc1	i	0.92	0	-2.1	113	-46	145
COCCNc1c2c(nc3c(-c4ccccc4)c(C)nn13)CCCC2	i	0.93	-3	-5.2	104	61	181
CCOC(=O)C1CCN(c2c(-c3ccccc3)c3cc(Cl)ccc3[nH]c2=O)CC1	i	1.1	1	1.6	103	x	x
CCc1nc(NCCN2CCOCC2)c(C#N)c2c1CCCC2	i	0.9	-8	1.3	102	-7	93
Fc1ccc(Nc2nc(N/N=C/c3ccco3)nc(N3CCCCC3)n2)cc1	i	0.95	-1	x	99	33	146
Brc1ccc2c(c1)OCCOCCOCCOCCOCCO2	i	1	3	0.1	104	x	x
O=C(COc1ccccc1)N1CCN(S(=O)(=O)c2ccc(Cl)cc2)CC1	i	1.4	0	-3.3	95	x	x
CCOC(=O)Cn1nc(C)n(-c2c(C)cccc2C)c1=O	i	1.1	1	x	100	x	x
COc1ccc2[nH]c(=O)c(CN(CCO)S(=O)(=O)c3c(C)ccc4nsnc34)cc2c1	i	0.96	-2	-2.4	105	25	105
N#Cc1nc(COc2ccccc2F)oc1NCc1ccc(F)cc1	i	0.91	-8	-2.4	106	x	x
COc1ccc(N2CCN(C(=O)c3ccc4c(=O)n(CC5CCCO5)c(=O)[nH]c4c3)CC2)cc1 (configuration not stated)	i	0.79	-6	-0.1	104	x	x
COC(=O)c1cc2nc(-c3ccc(OC)c(OC)c3)cc(C(F)(F)F)n2n1	i	0.96	0	-3.0	97	x	x
CCN1C(=O)N(CC)C2C1N(CO)C(=O)N2CO (configuration not stated)	i	0.97	-6	x	104	8	67
Cc1ccc(SC(CC(=O)c2ccc(C(C)(C)C)cc2)C(=O)O)cc1 (configuration not stated)	i	0.81	-7	x	100	0	139
O=C(Nc1ccc(C(=O)O)cc1)/C(=C\c1ccc2c(c1)OCO2)NC(=O)c1ccco1	i	0.98	-3	x	101	-50	135
O=C(Nc1ccccc1F)C(=Cc1sc(N2CCOCC2)nc1-c1ccccc1)C(=O)Nc1ccccc1F	u	x	-2	-0.4	102	x	x
CCCC(O)(c1ccc(OC)cc1)C(CN(C)C)c1ccccc1 (configuration not stated)	i	0.83	3	-0.5	126	x	x
COC(=O)c1nn(-c2ccc(F)cc2)ccc1=O	i	1	x	x	98	x	x
CCOC(=O)c1cn(CC)c2cc(F)c(F)cc2c1=O	i	0.94	x	x	102	x	x
O=C(/C=C/c1ccccc1Cl)N1CCCN(C(=O)/C=C/c2ccccc2Cl)CC1	i	0.99	-3	0.0	105	x	x
CN(CC(=O)OCC(N)=O)S(=O)(=O)c1ccc(Cl)cc1	i	0.93	6	x	97	x	x
COc1ccc(Cl)cc1-n1c(C)cc(C=O)c1C	i	0.85	-3	-1.0	102	3	151
Cn1nnnc1SCC(=O)NCC(=O)c1ccccc1	i	0.91	4	-4.4	102	-64	105
C=CCOc1cccc(C2c3c(oc4ccccc4c3=O)C(=O)N2c2ccccn2)c1 (configuration not stated)	i	1	-12	-3.7	103	x	x
COc1ccc(NC(=O)CS(=O)CC(=O)NCc2cccc(C(F)(F)F)c2)cc1 (configuration not stated)	i	1.1	0	-0.5	99	x	x
CCCCCC(=O)NNC(=S)NC(=O)c1ccc([N+](=O)[O-])cc1	i	0.85	-7	x	104	7	123
Cc1ccc(C(=O)NCc2nnc(SCC(=O)NC(C)c3ccccc3)n2C)cc1 (configuration not stated)	i	0.95	-4	x	105	x	x
CC1CN(c2oc(-c3ccco3)nc2S(=O)(=O)c2ccccc2)CC(C)O1 (configuration not stated)	i	0.87	-15	-0.7	101	18	101
COc1ccc(N2CCN(C(=O)c3ccc(CNc4c(N5CCOCC5)c(=O)c4=O)cc3)CC2)cc1	x	x	-3	-2.3	x	x	x

Record cards, from the list above. Values in the order: HSV replic up | HSV replic up primary fold | PKD1 kinase inh | GALR2 ag | RGS16-Gao | Insulin prom inh | Insulin prom inh cell count
O=C(Cn1c(NCCO)nc2ccccc21)N1CCN(Cc2ccccc2)CC1 in the list: i | 1.1 | 5 | x | 102 | x | x
Cn1c(-c2ccccc2)n[nH]c1=S in the list: i | 1 | x | x | 100 | x | x

Next part:
SMILES	HSV replic up	HSV replic up primary fold	PKD1 kinase inh	GALR2 ag	RGS16-Gao	Insulin prom inh	Insulin prom inh cell count
CN(C)CCN1C(=O)C(O)=C(C(=O)c2ccco2)C1c1ccccc1F (configuration not stated)	i	0.78	-10	-2.9	99	6	149
CC(C(=O)NCc1ccccc1)N1C(=O)C2CC=C(Cl)CC2C1=O (configuration not stated)	i	1.1	-2	-1.2	101	17	90
CC1(C)C2CCC(C2)C1C/C=N/NC(N)=S (configuration not stated)	i	1.1	x	x	101	x	x
COc1ccc(C2CC(c3cccc(C)c3)n3nc(N)nc3N2)cc1 (configuration not stated)	i	0.88	-10	-0.2	100	x	x
Cc1nc(-c2cccc(NS(=O)(=O)c3cccc4ccccc34)c2)cs1	i	0.94	-6	-2.2	109	7	63
Cc1ccccc1C(=O)Nc1ccccc1-c1nnn(CC(=O)Nc2ccc3c(c2)OCCO3)n1	i	0.93	-14	-1.8	80	x	x
COc1ccc(N/C=C2/Sc3ccccc3NC2=O)cc1	i	0.86	0	x	100	-15	92
CC(=O)c1ccc(N2CCN(C(=O)CCCc3nc4ccccc4s3)CC2)cc1	i	1	-3	-1.9	109	22	125
COc1ccccc1/C=C/C(=O)c1ccc(Cl)cc1	i	1.1	0	-0.9	97	x	x
O=C(NC(=S)Nc1ccc2cn[nH]c2c1)c1ccccc1	i	0.92	-4	x	92	x	x

Sorted by count of non-hydrogen atoms (ascending): 15 of the compounds above.
SMILES	HSV replic up	HSV replic up primary fold	PKD1 kinase inh	GALR2 ag	RGS16-Gao	Insulin prom inh	Insulin prom inh cell count
CC1(C)C2CCC(C2)C1C/C=N/NC(N)=S (configuration not stated)	i	1.1	x	x	101	x	x
COc1ccc(Cl)cc1-n1c(C)cc(C=O)c1C	i	0.85	-3	-1.0	102	3	151
COc1ccccc1/C=C/C(=O)c1ccc(Cl)cc1	i	1.1	0	-0.9	97	x	x
CN(CC(=O)OCC(N)=O)S(=O)(=O)c1ccc(Cl)cc1	i	0.93	6	x	97	x	x
COc1ccc(N/C=C2/Sc3ccccc3NC2=O)cc1	i	0.86	0	x	100	-15	92
CCCCCC(=O)NNC(=S)NC(=O)c1ccc([N+](=O)[O-])cc1	i	0.85	-7	x	104	7	123
CC(C(=O)NCc1ccccc1)N1C(=O)C2CC=C(Cl)CC2C1=O (configuration not stated)	i	1.1	-2	-1.2	101	17	90
COc1ccc(C2CC(c3cccc(C)c3)n3nc(N)nc3N2)cc1 (configuration not stated)	i	0.88	-10	-0.2	100	x	x
Cc1nc(-c2cccc(NS(=O)(=O)c3cccc4ccccc34)c2)cs1	i	0.94	-6	-2.2	109	7	63
CC1CN(c2oc(-c3ccco3)nc2S(=O)(=O)c2ccccc2)CC(C)O1 (configuration not stated)	i	0.87	-15	-0.7	101	18	101
CC(=O)c1ccc(N2CCN(C(=O)CCCc3nc4ccccc4s3)CC2)cc1	i	1	-3	-1.9	109	22	125
Cc1ccc(C(=O)NCc2nnc(SCC(=O)NC(C)c3ccccc3)n2C)cc1 (configuration not stated)	i	0.95	-4	x	105	x	x
C=CCOc1cccc(C2c3c(oc4ccccc4c3=O)C(=O)N2c2ccccn2)c1 (configuration not stated)	i	1	-12	-3.7	103	x	x
Cc1ccccc1C(=O)Nc1ccccc1-c1nnn(CC(=O)Nc2ccc3c(c2)OCCO3)n1	i	0.93	-14	-1.8	80	x	x
COc1ccc(N2CCN(C(=O)c3ccc(CNc4c(N5CCOCC5)c(=O)c4=O)cc3)CC2)cc1	x	x	-3	-2.3	x	x	x
